Screens deposited in PubChem by National Center for Advancing Translational Sciences (NCATS).
RE007 growth inh: less growth of the S. pombe RE007 Vpr strain | 0.21% of 360,000 active | Potency, µM (top dose mostly 92.2 µM), for inactives: top-dose activity change, negative = less growth | AID 651644 | S. pombe RE007 Vpr strain, BacTiter-Glo ATP luminescence, 24 h; control for the full effect not named in the record; active = well fitted falling curve with a large enough effect; inconclusive = small, poorly fitted or top-dose-only effect; inactive = no such curve, though single readings can be large or run the other way;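 note: % is set by controls: 0 for no effect and ±100 for the full control effect; nearly all actives have a fitted effect of over 50% in size; the assay follows cell death caused by Vpr and the record does not say whether a fall means rescue or toxicity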
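Fission yeast strain RE007, carrying one chromosomally integrated HIV-1 vpr copy, was seeded at OD 0.01 in PMG+AL medium with 23 nL pinned compound. After 24 h at 30 °C and 99% humidity, viability was read by BacTiter-Glo luminescence.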
SARS PLP yeast: SARS-CoV PLP inhibition in yeast. S. cerevisiae expressing SARS-CoV PLpro, growth rescue; control for the full effect not named in the record. Potency, µM (doses to about 32.9 µM), for the others: at the highest dose activity, positive = growth rescue. 0.19% of 330,000 active. AID 485353; active means well fitted rising curve with a large enough effect; inconclusive means small, poorly fitted or top-dose-only effect; inactive means no such curve, though single readings can be large or run the other way; note: 0% is about no effect; nearly all actives have a fitted effect of over 55% in size; growth read by luminescence after 48 h
2A StopGo: FMDV 2A StopGo reporter, luciferase signal; human cells with a luciferase reporter of 2A StopGo recoding; control for the full effect not named in the record; Potency, µM (titrated, usually from 57.9 µM), for the others: top-dose signal change, negative = less light; 1.2% of 410,000 active; AID 1159524; active = well fitted falling curve with a large enough effect; inconclusive = small, poorly fitted or top-dose-only effect; inactive = no such curve, though single readings can be large or run the other way; tested in HEK293T cells; note: % is set by controls: 0 for no effect and ±100 for the full control effect; nearly all actives have a fitted effect of over 45% in size; luciferase light after 4 h
Cruzain inh Det: blocks cruzain activity in presence of Triton detergent; AID 1478; 0.43% of 200,000 active; purified cruzain, Z-FR-AMC fluorescence, 0.01% Triton; Potency, µM, inactives show max response, negative = inhibition, most hits filed as inhibitors;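 note: plate controls were neutral wells for no effect and buffer without enzyme for full effect; nearly all actives have a fitted effect of over 40% in size; top concentration of the series not given in the record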
Target sequence (P25779 123-467 limits assumed): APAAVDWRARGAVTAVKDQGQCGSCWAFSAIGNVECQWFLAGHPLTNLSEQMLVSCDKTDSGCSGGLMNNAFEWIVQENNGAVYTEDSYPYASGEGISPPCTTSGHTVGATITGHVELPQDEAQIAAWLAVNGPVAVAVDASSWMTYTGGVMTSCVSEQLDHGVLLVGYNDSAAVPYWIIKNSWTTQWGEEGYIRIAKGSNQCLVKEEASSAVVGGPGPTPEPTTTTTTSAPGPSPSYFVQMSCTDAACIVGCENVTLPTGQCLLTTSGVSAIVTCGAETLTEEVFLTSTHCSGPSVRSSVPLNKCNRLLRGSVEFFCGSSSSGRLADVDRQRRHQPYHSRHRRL
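Detergent-containing run (0.01% Triton X-100) in acetate buffer pH 5.5 with 5 mM DTT: enzyme at 1.5 nM final, 15 min compound preincubation at room temperature, then 2 uM Z-FR-AMC substrate. Activity taken as 60 s fluorescence increase at 360/450 nm.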
MARV entry inh: Marburg virus entry inhibition. AID 540276. 1.8% of 300,000 active. Marburg virus pseudotyped entry inhibition, cell reporter; control for the full effect not named in the record; about a third of the inactives were read at about 46 µM. Potency, µM (doses to about 37.8 µM), without a hit: at the highest dose activity change, negative = inhibition, actives largely listed as inhibitors; active = well fitted inhibition curve with a large enough effect; inconclusive = small, poorly fitted or top-dose-only effect, or effect the other way; inactive = flat fitted curve, though single readings scatter; tested in HEK293 cells; about a fifth of its hits are not listed in these tables; note: % is set by controls: 0 for no effect and ±100 for the full control effect; luciferase read-out
NS1 inh: inhibitors of influenza NS1 protein function. AID 2326. 0.4% of 270,000 active. Potency, µM (doses to about 46.1 µM), inactives show at the highest dose activity, positive = more growth. S. cerevisiae slowed by influenza A NS1, growth recovery by OD600; active means well fitted rising curve with a large enough effect; inconclusive means small, poorly fitted or top-dose-only effect; inactive means no such curve, though single readings can be large or run the other way; note: nearly all actives have a fitted effect of over 50% in size
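Growth recovery, yeast-based: influenza A NS1 expressed in S. cerevisiae causes slow growth, and suppressors are detected by OD600. The parent strain without NS1 is used as positive control.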
LASV entry inh: blocks Lassa virus binding to or entry into cells; Potency, µM (top dose mostly 37.9 µM), without a hit: top-dose activity change, negative = inhibition, most hits filed as inhibitors; 1.2% of 300,000 active; Lassa virus pseudotype entry inhibition, cell reporter; control for the full effect not named in the record; active means well fitted inhibition curve with a large enough effect; inconclusive means small, poorly fitted or top-dose-only effect, or effect the other way; inactive means flat fitted curve, though single readings scatter; tested in HEK293 cells; note: % is set by controls: 0 for no effect and ±100 for the full control effect; nearly all actives have a fitted effect of over 50% in size; luciferase read-out
Cruzain noTriton: inhibitors of Trypanosoma cruzi cruzain without detergent; P25779; purified cruzain, Z-FR-AMC fluorescence, no detergent; Potency, µM, for the others: max response, negative = inhibition, most hits filed as inhibitors; 2.3% of 200,000 active; AID 1476;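 note: plate controls were enzyme without inhibitor for no effect and buffer without enzyme for full effect; nearly all actives have a fitted effect of over 40% in size; top concentration of the series not given in the record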
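Detergent-free condition (0.00005% Triton X-100) in acetate buffer pH 5.5 with DTT. 1.5 nM enzyme and compound were pre-mixed 15 min, then 2 uM Z-FR-AMC substrate added; reaction progress from fluorescence change between first and third reads (60 s).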
* = called active by the depositor; ? = inconclusive; / = no result given; & = joins results of further samples; [ ] = dose if it differs, or a comment. Unless noted, calls come from the whole dose curve; as a rule, active = well fitted curve in the direction sought with a large enough effect; inconclusive = small, poorly fitted or top-dose-only effect, or another doubt; inactive = no such curve, though single readings can be large; an effect the other way counts as inactive or inconclusive. Potency is the fitted concentration of half-maximal effect. No enrichment for hits. About 4.8% of those tested had a hit in this group.

No.	canonical_smiles	RE007 growth inh	SARS PLP yeast	2A StopGo	Cruzain inh Det	MARV entry inh	NS1 inh	LASV entry inh	Cruzain noTriton
1	O=C(c1ccc2c(c1)OCCO2)C1CCN(S(=O)(=O)c2ccccc2F)CC1	-14%	4%	?	2.5%	-2%	-39%	4%	6%
2	O=C(CSc1ccc(-c2ccco2)nn1)c1cccc([N+](=O)[O-])c1	3%	5%	3%	-6.4%	-6%	27%	-5%	-13%
3	Cc1ccc2[nH]c3c(=O)[nH]ncc3c2c1	5%	2%	22%	/	-5%[46.1 µM]	-1%	-9%	/
4	CCc1ccccc1NC(=O)Nc1c[nH]c(=O)[nH]c1=O	/	/	-9%	2.1%	/	/	?	4%
5	COc1ccc(NC(=O)N2CCCC2C(=O)NCc2ccc(C)cc2)cc1 (stereo not given)	-1%	1%	7%	/	-3%[46.1 µM]	-10%	-9%[46.1 µM]	/
6	C=C(C)COc1ccc(-c2nc(N)ncc2Oc2ccc(OC)cc2)c(O)c1	-2%	-1%	-27%	-3.0%	?	-31%	?	2%
7	Cc1cc(S(=O)(=O)N2CC(=O)N(CCc3ccccc3)C(=O)C2)ccc1F	23%	1%	9%	-0.2%	3%	-5%	-3%	5%
8	OCCN1CCN(C2CCC(c3ccc(F)cc3)c3ccc(F)cc32)CC1 (stereo not given)	-2%	/	?	/	4µM*	/	?	/
9	O=C(O)c1cc(NC(=O)c2ccco2)cc(NC(=O)c2ccco2)c1	16%	3%	2%	/	-3%[46.1 µM]	-4%	1%[46.1 µM]	/
10	COc1ccc(C2=NN(C(=O)CCCC(=O)O)C(c3cn(-c4ccccc4)nc3-c3ccccc3)C2)cc1 (stereo not given)	2%	1%	4%	/	16%	1%	-1%	/
11	O=C(NCCCN1CCCC1)Nc1cccc2ccccc12	10%	3%	-7%	4.8%	?	5%	13%	1%
12	CC1CCCCC1NC(=O)c1ccc(CSc2nc3ccncc3[nH]2)cc1 (stereo not given)	-16%	-17%	-9%	0.0%	-4%	22%	-19%	-1%
13	CCCCOC(=O)c1cccnc1	1%	0%	-26%	/	/	0%	/	/
14	CCOc1ccc(-n2cnnn2)cc1S(=O)(=O)Nc1c(C)cccc1C	6%	6%	/	-1.5%	23%	1%	-29%	-10%
15	COC(=O)CSc1nnc(NC(=O)CCc2ccccc2)s1	22%	?	-9%	/	/	-4%	/	/
16	Cc1c(C(=O)NCc2ccccn2)sc2nc(-c3ccccc3)cn12	-3%	-16%	19%	-0.1%	/	-95%	/	-17%
17	COC(=O)c1cccc(CN2C(=O)SC(Nc3ccc(C)cc3)C2=O)c1 (stereo not given)	1%	0%	-12%&4%	-9.5%	4%&4%[46.1 µM]	-2%	6%[46.1 µM]	8%
18	Cc1cc(Br)c(NC(=O)CCNC(=O)OCc2ccccc2)cc1C	0%	-13%	-15%	/	/	-10%	/	/
19	COc1ccc(CC[n+]2cc(/N=C(\C)[O-])on2)cc1OC	-4%	18%	/	-0.2%	-3%	7%	14%	2%
20	COc1ccc(OC)c(C(=O)c2nc3c(n2O)CCCCC3)c1	-4%	-9%	14%	-4.6%	26%	-112%	12%	0%
21	COc1ccc(S(=O)(=O)N2CCN(C(=O)c3ccc([N+](=O)[O-])o3)CC2)cc1	12%	-2%	-10%	/	-7%&-7%[46.1 µM]	-12%	2%	/
22	O=c1c(=O)n(Cc2ccc(Cl)cc2)ccn1Cc1ccc(F)cc1	/	/	-11%	-2.9%	/	/	-5%[46.1 µM]	7%
23	CCCOc1ccccc1C1CC(=O)NC2=C1C(=O)CCC2 (stereo not given)	26%	-3%	-14%	1.2%	?	5%	?	8%
24	Cn1c(SCC(=O)Nc2ccc3c(c2)OCCO3)nnc1-c1ccccn1	-8%	4%	-2%	0.4%	7%	2%	10%	2%
25	COc1ccc(-c2nnc(NC(=O)c3cccs3)s2)c(OC)c1	-12%	0%	19%	/	/	0%	/	/
26	CCOC(=O)c1c(C)[nH]c(C(=O)/C(C#N)=C/c2ccc(OCC)cc2)c1C	/	16%	0%	-9.7%	-15%	4µM*	10%	6%
27	O=C(CSc1nc2c(c(=O)[nH]1)CN(Cc1ccc(F)cc1)CC2)Nc1ccccc1Cl	/	/	-4%	-4.4%	26%[46.1 µM]	/	20%[46.1 µM]	0%
28	CCCCC(=O)OCC(=O)Nc1cccc(S(=O)(=O)NC2=NCCCCC2)c1	-23%	0%	16%	/	19%[46.1 µM]	/	-7%	/
29	O=C(CCCl)N(Cc1nc2ccccc2c(=O)[nH]1)Cc1cccs1	-9%	0%	-9%	/	14%	1%	14%	/
30	Cc1onc(-c2ccccc2)c1C(=O)N/N=C/c1ccc(Br)cc1	1%	-1%	?	/	/	-1%	/	/
31	Cn1c(=O)oc2cc(C(=O)c3ccccc3)ccc21	-10%	2%	0%	2.3%	0%&0%	6%	3%	-10%
32	CCC(C)(C)NC(=O)C(c1ccccc1Cl)N(C(=O)CCC(=O)Nc1cc(C)on1)C(C)(C)C (stereo not given)	5%	1%	-30%	/	8%[46.1 µM]	2%	0%	/
33	Cc1onc(-c2c(F)cccc2Cl)c1C(=O)N1CCN(c2ncccn2)CC1	-4%	-1%	-15%	/	/	-4%	/	/
34	O=C1CC(=C(c2ccccc2)c2ccccc2)C(=O)N1CCN1CCN(c2cccc(Cl)c2)CC1	-2%	0%	-23%	-7.1%	3%	5%	-6%	-17%
35	CC(Oc1ccc(Cl)cc1Cl)C(=O)NCCCCc1ccccc1 (stereo not given)	-21%	-1%	-6%	-7.6%	-5%	-21%	12%	14%
36	O=c1c2c(n3nnnc3n1-c1ccccc1)-c1ccccc1CC21CCCC1	1%	13%	-1%	0.4%	5%	-2%	-10%	-2%
37	Cc1ccc2c(c1)N(CC(=O)OC(CC(C)C)C(=O)NC1CCCC1)C(=O)CO2 (stereo not given)	-3%	7%	-22%	-1.7%	-28%	-56%	-33%[14.3 µM]	6%
38	CN=C1c2cc3c(Br)c(OC)ccc3n2CCN1C	-20%	2%	-26%	-3.9%	?	7%	?	-6%
39	O=C(O)c1cccc(NC(=O)C2CCCO2)c1 (stereo not given)	12%	-1%	6%	4.4%	0%	1%	2%	1%
40	CCOc1ccc(C2C(C(=O)Nc3ccc(OC)cc3)=C(C)Nc3nc(SCc4ccc(Cl)cc4)nn32)cc1 (stereo not given)	/	/	25%	4.2%	/	/	9%[46.1 µM]	11%
41	CC(C)N(Cc1nc(-c2ccc(Cl)cc2)no1)C(=O)c1ccc(C(C)(C)C)cc1	/	/	-14%	-4.2%	-26%[46.1 µM]	/	20%[46.1 µM]	11%
42	Nc1nnn(-c2ccccc2)c1-c1ccccc1	19%	/	5%	/	0%[46.1 µM]	/	-17%	/
43	CCOC(=O)CNC(=O)CSc1nnc(-c2cccc(OC)c2)n1CC	3%	1%	-16%	-2.0%	19%	-7%	4%	-4%
44	CC(C)OC(=O)/C(C#N)=C/c1cn(C)c2ccccc12	-6%	-2%	17%	/	?	3%	-35%[46.1 µM]	/
45	Cc1nn(-c2ccc(N3CCCCC3)nn2)c(C)c1CCC(=O)Nc1cccc(F)c1	-7%	-9%	?	-7.7%	/	?	?	-6%
46	Cc1ccc(NC(=O)CN2C(=O)CCn3nc(-c4cccn4C)cc32)c(Cl)c1	/	/	3%	-3.2%	/	/	1%[46.1 µM]	?
47	O=C(O)CCC(=O)N1CCCC1	3%	2%	4%	/	8%[46.1 µM]	/	-2%	/
48	COC(=O)c1cc2oc3ccccc3c2n1CC(=O)Nc1ccc(C)cc1Cl	/	/	22%	1.2%	-14%[46.1 µM]	/	/	2%
49	COc1ccc(-c2onc(C)c2C)cc1S(=O)(=O)Nc1ccc(OC(F)(F)F)cc1	/	/	24%	-8.8%	/	/	11%[46.1 µM]	-3%
50	O=C1CCN(C(=O)Nc2ccccc2Cl)N1	34%	2%	3%	-0.1%	2%	1%	1%	3%
51	O=C(O)c1ccc2c(c1)C(=O)N(NC(=O)c1ccc(O)cc1)C2=O	19%	-16%	-23%	-3.4%	?	-10%	?	7%
52	CCCOC(=O)c1ccc(NC(=O)C(=O)NCCN(CC)CC)cc1	16%	0%	2%	/	/	1%	/	/
53	COCCNC(=O)CCC1CCN(Cc2cccc(-c3ccc(C)o3)c2)CC1	17%	-4%	1%	/	/	-9%	/	/
54	Cc1ccc(-c2nnc(/C=C/c3ccccc3)o2)cc1	-4%	6%	38%[activator]	-6.6%	?	-23%	?	-11%
55	CN(CCO)c1ncnc2c1sc1nc(N3CCOCC3)c3c(c12)CCC3	-2%	2%	-14%	/	/	2%	/	/
56	CN(C)c1ccc(Nc2ncnc3c2c(-c2ccccc2)cn3-c2cccc(Cl)c2)cc1	/	/	-20%	7.9%	/	/	3%[46.1 µM]	-3%
57	Cc1noc(Cn2c(=O)c3cc4c(cc3n(CC(=O)Nc3cccc(Cl)c3)c2=O)OCO4)n1	/	/	?	1.9%	/	/	18%[46.1 µM]	-1%
58	CCOC(=O)c1c(S(=O)(=O)NC2CCN(C(=O)OCC)CC2)c(C)n(C)c1C	1%	4%	26%	/	/	5%	/	/
59	CC(CNC(=O)c1ccc(CSc2nc3ccncc3n2Cc2ccccc2)cc1)c1ccccc1 (stereo not given)	/	/	-22%	-8.3%	-2%[46.1 µM]	/	-17%[46.1 µM]	13%
60	COc1ccc(-c2cc3nc4n(c(=O)c3s2)CCCCC4)cc1	-7%	0%	-9%	/	?	0%	4%[46.1 µM]	/

Carrying on:
No.	canonical_smiles	RE007 growth inh	SARS PLP yeast	2A StopGo	Cruzain inh Det	MARV entry inh	NS1 inh	LASV entry inh	Cruzain noTriton
61	C=CCN1C(c2ccc(OCC)cc2)=CS/C1=C(\C#N)c1nnc2n1CCCCC2	7%	-3%	?	-3.4%	?	-19%	?	-10%
62	O=c1oc2ccc3ccccc3c2cc1-c1nnc(Nc2cccc(C(F)(F)F)c2)s1	/	/	1%	-0.6%	/	/	4%[46.1 µM]	1%
63	COC(=O)c1sccc1NC(=O)/C=C/c1c(Cl)cccc1Cl	0%	1%	8%	-5.3%	15%	1%	-1%	-20%
64	O=C(CSc1nc2ccccc2c(=O)[nH]1)Nc1ccccc1C(F)(F)F	-11%	1%	-28%	/	/	7%	/	/
